# gsp agonist: gsp mutant agonism; gsp mutant cells, cAMP HTRF, 30 min; control for the full effect not named in the record; Potency, µM (doses to about 76.9 µM), for inactives: at the highest dose activation (cAMP increase), most hits filed as activators; 0.13% of 340,000 active; AID 624287; active = well fitted activation curve with a large enough effect; inconclusive = small, poorly fitted or top-dose-only effect, or another doubt; inactive = no such curve, though single readings can be large or run the other way; cell line not stated here;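 further: phosphodiesterase inhibitor Ro 20-1724 added with compounds to block cAMP breakdown; potency means the concentration at half of the fitted maximal effect; nearly all actives have a fitted effect of over 60% in size; about a fifth of the inactives were tested at one dose only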
#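 Cells in DMEM/10% FBS with G418 were pretreated with compounds in DMSO plus […] (300 uM stock) for 30 min at 37C. cAMP was measured by HTRF (cAMP-d2 plus anti-cAMP antibody-K) after 30 min at room temperature.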
# D2 potentiator: positive allosteric modulators of human D2 dopamine receptor; potentiation, % (test concentration not listed); 0.23% of 360,000 active; DiscoveRx D2 beta-arrestin cells, luminescence, 90 min; 100% = 57 uM dopamine signal; P14416; active = potentiation of 50% or more; inconclusive = 30% to 50%; inactive = 30% or less;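 further: compound concentration not given in the record; tested on top of an EC20 dose of dopamine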
# Target sequence (P14416 whole entry, looked up): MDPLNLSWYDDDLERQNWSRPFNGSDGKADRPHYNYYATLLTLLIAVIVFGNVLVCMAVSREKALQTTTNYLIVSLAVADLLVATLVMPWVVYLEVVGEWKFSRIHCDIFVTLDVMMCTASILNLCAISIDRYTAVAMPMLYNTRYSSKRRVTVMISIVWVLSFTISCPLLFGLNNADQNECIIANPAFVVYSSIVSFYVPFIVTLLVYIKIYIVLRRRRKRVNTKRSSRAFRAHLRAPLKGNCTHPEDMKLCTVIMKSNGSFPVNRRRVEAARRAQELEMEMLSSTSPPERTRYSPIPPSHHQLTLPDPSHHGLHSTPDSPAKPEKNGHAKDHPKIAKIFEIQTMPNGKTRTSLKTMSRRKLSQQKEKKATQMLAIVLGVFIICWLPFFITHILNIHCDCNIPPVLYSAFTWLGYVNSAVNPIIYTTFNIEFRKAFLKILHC
#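 D2 cells co-treated with compound plus 50 nM dopamine (EC20) for 90 min at 37 deg C to detect potentiation. Beta-arrestin recruitment was read as enzyme-fragment luminescence after 1 h at ambient temperature. Full response was set by 57 uM dopamine.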
# gsp antag: gsp mutant antagonism. gsp-mutant cells, cAMP HTRF, 30 min; control for the full effect not named in the record. Potency, µM (series often up to 76.9 µM), inactives show at the top dose activity change, negative = inhibition, most hits filed as inhibitors. 0.4% of 340,000 active; active = falling curve of any shape with a large fitted effect; inconclusive = falling curve, mostly with a smaller effect; inactive = flat or rising curve; cell line not stated here;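 further: intracellular cAMP measured with PDE inhibitor Ro 20-1724 present during compound exposure; potency means the concentration at half of the fitted maximal effect; on the % scale 0 is the no-effect control and ±100 the full control effect; nearly all actives have a fitted effect of over 65% in size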
#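 Cells, 2000/well, grown 16–24 h in DMEM 10% FBS with 0.5 mg/ml G418, then compounds plus […] (300 uM addition stock), 30 min at 37C. cAMP read by HTRF (cAMP-d2 and anti-cAMP antibody-K in lysis buffer) after 30 min RT.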
# D2 agonist: agonists of human D2 dopamine receptor (beta-arrestin); P14416; DiscoveRx PathHunter D2 beta-arrestin, luminescence, 90 min; 100% = 57 uM dopamine signal; activation, % (concentration not given with the values); 0.084% of 360,000 active; in the data active = activation above about 40%; inconclusive = about 15% to 40%; inactive = below about 15%; further: compound concentration not given in the record; the text of the record calls up to 30% inactive
#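 DiscoveRx PathHunter D2 beta-arrestin cells (2,100/well) attached overnight, then compound-stimulated 90 min at 37 C in HBSS/10 mM HEPES/0.1% Tween-20 buffer; beta-galactosidase complementation read by luminescence after 1 h at ambient temperature. Dopamine 57 uM final (EC100) as control.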
# CtBP-E1A blk: CtBP/E1A binding inhibition; activity change, % (test concentration not listed); 0.49% of 340,000 active; AlphaScreen GST-E1A/His-CtBP binding, 1536-well; active compounds read low; control for the full effect not named in the record; AID 651724; in the data active means activity change below about -65%; inconclusive means about -30% to -65%; inactive means above about -30%; further: on the % scale 0 is the no-effect control and ±100 the full control effect
#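 In 5 uL wells, 23 nL compound meets equimolar GST-E1A and His-CtBP (5X stock 125 nM each) for 2 h, 37 °C. Beads (5X, 50 ug/mL) then 1 h, 37 °C, dark.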
# Six1-Eya2 blk: inhibitors of human Six1/Eya2 interaction. Q15475+O00167. AlphaScreen GST-Six1/His-Eya2 binding, biochemical; active compounds read low; control for the full effect not named in the record. activity change, % (no concentration beside the values). 0.56% of 360,000 active. AID 651725; in the data active = activity change below about -65%; inconclusive = about -30% to -65%; inactive = above about -30%; further: on the % scale 0 is the no-effect control and ±100 the full control effect
#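 Six1/Eya2 binding was read as AlphaScreen signal after compounds were pinned into GST-Six1 plus His-tagged Eya2 (5X stock 250/500 nM) in pH 8.0 Tris/NaCl/TCEP buffer, beads added, then incubated 1 h, 37 C, dark.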
# * marks the source's active call; other numbers are inactive results; ? = inconclusive; . = no result given; [ ] = dose if it differs, or a comment.
# Fields: gsp agonist	D2 potentiator	gsp antag	D2 agonist	CtBP-E1A blk	Six1-Eya2 blk
[1] O=S(=O)(NC1=NCCCCC1)c1ccccc1Cl
 : 20.1%	-3.8	9.9%	-2.8	2.8	17.0
[2] NC(=O)COC(=O)c1ccc(C(=O)C(=O)c2ccccc2)cc1
 : -6.1%[15.4 µM]	-10.1	3.4%	-3.2	10.8	-1.3
[3] COc1ccc(CNS(=O)(=O)c2cc(-c3cc(C)no3)ccc2C(C)C)cc1
 : 4.1%	-6.1	-27.4%	0.7	.	-2.6
[4] Cc1nn(C(C)C(=O)Nc2ccc(Cl)cn2)c(C)c1[N+](=O)[O-] (stereo not drawn)
 : -0.7%	-18.0	-3.5%	-0.3	-23.7	-0.6
[5] Brc1ccc(CNc2nc3ccccc3n2CCN2CCCCC2)cc1
 : -43.4%[inhibitor]	-19.7	-7.6%	-4.1	-8.5	-22.7
[6] Cc1ccccc1N1C(=O)C2C3CC(=O)C(c4ccccc43)C2C1=O (stereo not drawn)
 : 23.8%	-8.6	14.4%	-0.8	0.0	-7.8
[7] O=C(CCN1C(=O)/C(=C/c2cccs2)SC1=S)Nc1cccc(O)c1
 : -38.8%	-1.1	39.8µM*	1.4	?	?
[8] Brc1ccc(-c2csc(-c3c[nH]c4ccccc34)n2)cc1
 : -3.7%	-11.6	-0.2%	9.0	-0.4	-5.3
[9] CC1(C)CC(=O)CC(=Nc2ccc3[nH]c(=O)[nH]c3c2)C1
 : -3.9%	-1.7	-5.0%	-2.1	-17.7	-1.3
[10] CCOC(=O)COc1ccc2c(c1)c(C(C)=O)c(C)n2-c1ccccc1
 : -17.9%[15.4 µM]	-1.3	?	0.2	4.5	-3.1
[11] O=C(CCC1CCCN(c2ncccn2)C1)N1CCN(c2ccccn2)CC1 (stereo not drawn)
 : 23.5%	-6.6	4.4%	2.1	-21.8	0.0
[12] CC(=O)N(Cc1ccc(F)cc1)C1=C(NCc2ccccc2)C(=O)c2ccccc2C1=O
 : 0.4%	17.7	-6.1%	4.6	?	-27.0
[13] CC(=O)N/N=C(\C)c1ccc2c(c1)OCCO2
 : -23.4%	-5.2	10.4%	-0.5	5.7	-1.6
[14] COc1ccccc1NC(=O)Cn1ncc2c1-c1ccccc1OC2
 : ?	-2.6	-3.0%	-1.6	2.6	-0.7
[15] CC(C)=CCCC(C)CN1CCC(N2CCC(C(=O)NC(C)C)CC2)CC1 (stereo not drawn)
 : -2.0%	-10.9	10.0%	-9.6	.	-1.1
[16] Cc1ccccc1CSc1nnc(C)c(=O)n1N
 : 2.8%[15.4 µM]	-1.6	4.9%	-5.6	6.6	3.2
[17] O=C(CSc1cn(CCNC(=O)c2cccs2)c2ccccc12)NC1CCCC1
 : -17.4%	-4.2	-23.0%	-0.4	0.0	-1.0
[18] CC1C=CCC2C(=O)N(c3ccc(Cl)cc3O)C(=O)C12 (stereo not drawn)
 : 3.2%	-9.2	-7.5%	-2.0	?	?
[19] COc1ccc(OC)c(-c2csc(NC(=O)C3=COCCO3)n2)c1
 : -2.6%	12.0	-18.1%	1.3	-8.7	-7.9
[20] Cn1nccc1C(=O)Nn1cnnc1
 : 1.4%	1.6	-0.3%	-5.2	5.3	4.8
[21] Cc1nnc(N2C(=O)c3cccc4c([N+](=O)[O-])ccc(c34)C2=O)s1
 : ?	61.8*	-25.9%	4.1	.	-2.4
[22] COc1ccc(CC(=O)O/N=C(\N)c2ccncc2)cc1
 : -12.5%[15.4 µM]	-2.5	-2.1%	7.0	9.1	0.1
[23] CC(=O)c1cc(CN2CCN(Cc3ccccc3)C(CCO)C2)cs1 (stereo not drawn)
 : 14.5%	-27.6	1.6%	-1.4	1.4	1.6
[24] COc1cccc(NC(=O)c2cc([N+](=O)[O-])ccc2N2CCN(C)CC2)c1
 : -116.3%[inhibitor]	-3.2	4.9%	-4.0	0.8	-0.3
[25] Cc1ccccc1N=C1SC(CC(=O)Nc2ccc3ccccc3c2)C(=O)N1Cc1ccccn1 (stereo not drawn)
 : -6.5%[15.4 µM]	-11.7	-17.0%	-0.3	-14.9	-2.2
[26] Cc1ccc(NC(=O)COC(=O)/C=C/c2ccco2)cc1S(=O)(=O)N(C)C
 : 5.2%	-9.9	-16.7%	-3.0	-19.1	-10.9
[27] CCOC(=O)N1CCC(n2c(SCC(=O)Nc3nccs3)nc3ccsc3c2=O)CC1
 : -8.8%	6.1	-11.0%	-2.8	-2.1	0.5
[28] CCCCCCn1cnc2c(oc3nc4c(cc32)CCCC4)c1=O
 : -325.2%[inhibitor]	-6.3	3.6%	0.6	-24.1	-3.4
[29] Cn1c(CN2CCOCC2)c(C#N)c2ccccc21
 : -49.4%	-10.9	-2.3%	-0.9	-2.4	2.3
[30] CCN1CCN(C(=O)c2ccc(CS(=O)(=O)Cc3ccccc3F)o2)CC1
 : 3.8%	-5.1	6.0%	-0.5	5.7	1.8

# Some of these compounds in order of molecular weight, ascending.
# Fields: gsp agonist	D2 potentiator	gsp antag	D2 agonist	CtBP-E1A blk	Six1-Eya2 blk
[16] Cc1ccccc1CSc1nnc(C)c(=O)n1N
 : 2.8%[15.4 µM]	-1.6	4.9%	-5.6	6.6	3.2
[22] COc1ccc(CC(=O)O/N=C(\N)c2ccncc2)cc1
 : -12.5%[15.4 µM]	-2.5	-2.1%	7.0	9.1	0.1
[2] NC(=O)COC(=O)c1ccc(C(=O)C(=O)c2ccccc2)cc1
 : -6.1%[15.4 µM]	-10.1	3.4%	-3.2	10.8	-1.3
[28] CCCCCCn1cnc2c(oc3nc4c(cc32)CCCC4)c1=O
 : -325.2%[inhibitor]	-6.3	3.6%	0.6	-24.1	-3.4
[21] Cc1nnc(N2C(=O)c3cccc4c([N+](=O)[O-])ccc(c34)C2=O)s1
 : ?	61.8*	-25.9%	4.1	.	-2.4
[8] Brc1ccc(-c2csc(-c3c[nH]c4ccccc34)n2)cc1
 : -3.7%	-11.6	-0.2%	9.0	-0.4	-5.3
[11] O=C(CCC1CCCN(c2ncccn2)C1)N1CCN(c2ccccn2)CC1 (stereo not drawn)
 : 23.5%	-6.6	4.4%	2.1	-21.8	0.0
[7] O=C(CCN1C(=O)/C(=C/c2cccs2)SC1=S)Nc1cccc(O)c1
 : -38.8%	-1.1	39.8µM*	1.4	?	?
[30] CCN1CCN(C(=O)c2ccc(CS(=O)(=O)Cc3ccccc3F)o2)CC1
 : 3.8%	-5.1	6.0%	-0.5	5.7	1.8

# The listing continues.
cpd | SMILES | gsp agonist | D2 potentiator | gsp antag | D2 agonist | CtBP-E1A blk | Six1-Eya2 blk
31 | CCOC(=O)C(C)(C)C(=O)C(C)(C)C(O)c1ccccn1 (stereo not drawn) | 27.0% | -0.4 | -1.0% | 2.4 | 2.1 | 0.0
32 | COC(C[C@H](O)[C@@H](C)[C@@H](O)COCc1ccccc1)OC | -23.6% | -10.6 | 14.0% | -1.3 | . | 0.5
33 | COc1ccc(CNC(=O)c2cc3c(C)nc4ccccc4c3o2)c(OC)c1 | ? | 2.9 | -16.3% | 1.9 | -29.3 | ?
34 | CC(=O)NCC(=O)NNC1CC(=O)N(c2cccc(Cl)c2)C1=O (stereo not drawn) | 18.0%[15.4 µM] | -3.8 | 4.9% | -5.5 | -1.4 | 0.0
35 | O=C(NNC(=O)c1cccs1)c1ccc(Br)cc1 | -42.4%[inhibitor] | -2.9 | -6.4% | -2.8 | -0.8 | -15.0
36 | COc1ccc(COc2ccccc2C(N)=O)cc1F | -25.0% | 2.7 | 5.4% | 4.6 | 4.5 | 3.7
37 | CCOC(=O)c1c(C)c(C(=O)Nc2ccc3c(c2)OCO3)c(C)n1C | ? | -15.5 | -15.3% | -3.0 | -18.1 | -18.6
38 | CCn1c(O)c(N=NC(=O)c2ccc(CSc3nncn3C)cc2)c2ccccc21 | -30.4%[inhibitor] | -10.5 | -23.9% | -2.5 | -12.1 | -0.7
39 | Cc1ccc(S(=O)(=O)N2CCC(C(=O)Nc3ccccc3N3CCCC3)CC2)cc1C | 0.2%[15.4 µM] | -41.6 | -10.9% | -4.9 | -15.6 | -9.8
40 | COc1ccccc1Oc1c(C)oc2c(CN3CCN(CCO)CC3)c(O)ccc2c1=O | ? | -5.3 | 1.6% | -1.9 | 0.6 | 2.8
41 | CCN(CC)CCNS(=O)(=O)c1ccc(Cl)cc1 | -15.9% | -21.8 | 12.1% | -0.4 | 4.9 | 0.7
42 | COc1ccc(S(=O)(=O)N(C)C)cc1NC(=O)CN1CCN(C(=O)C2CC2)CC1 | -0.2% | -14.5 | -3.1% | -5.1 | . | -3.7
43 | Cc1c(NS(=O)(=O)c2cccc(C(=O)NCc3ccc(Cl)cc3)c2)c(=O)n(-c2ccccc2)n1C | -2.6% | -0.7 | -21.0% | 2.7 | -3.5 | -1.2
44 | COc1ccc(NS(=O)(=O)c2ccc3nc(COc4ccc(C#N)cc4)[nH]c3c2)cc1 | -17.0% | 10.1 | 0.7% | 6.9 | -11.2 | 1.3
45 | CCOC(=O)c1ccc(COC(=O)CNC(=O)CNC(=O)Cc2ccccc2)cc1 | -28.8% | 5.1 | -2.0% | -1.8 | 9.7 | 3.6
46 | COc1cccc(NC(=O)CSc2nnc(NC(=O)C3CCC3)s2)c1 | 29.4% | -4.1 | 0.5% | -3.7 | -8.1 | 2.1
47 | CCOC(=O)C1CCCN(C(=O)CCC(=O)Nc2ccc3nc(N4CCOCC4)cc(C)c3c2)C1 (stereo not drawn) | 3.8% | -8.4 | -7.1% | 1.5 | -14.1 | -7.7
48 | O=C1COc2ccc(C(=O)COC(=O)CNC(=O)c3ccccc3)cc2N1 | -26.4% | -0.9 | 11.0% | -0.5 | 8.3 | 6.0
49 | CCOc1c2ccc(C(=O)NCc3cc(C(F)(F)F)cc(C(F)(F)F)c3)cc2nn1CCOC | -39.6% | -9.9 | 0.1% | -7.4 | 3.3 | 8.9
50 | CC1=C(c2ccccc2)[N+](=O)C2(CCCCC2)N1[O-] | 4.0%[15.4 µM] | -4.1 | 10.2% | -4.4 | 4.4 | 14.1
51 | CCCCCCNC(=O)CNC(=S)N(Cc1cccs1)C1CCCCC1 | -11.4% | 1.2 | -33.7% | -3.3 | 17.3 | -6.7
52 | Cc1ccc(N2C(=O)N(CC(=O)Nc3cc(F)ccc3C)C(=O)C2C)cc1 (stereo not drawn) | -11.4% | -10.3 | -2.1% | -2.8 | 7.9 | 0.0
53 | CCOC(=O)c1[nH]c(C)c(/C(O)=C2\C(=O)C(=O)N(CCCN(C)C)C2c2cccnc2)c1C (stereo not drawn) | 18.6% | 0.6 | 4.2% | -4.3 | 0.1 | 7.8
54 | Cc1ccc(NCc2nc(SCC(=O)Nc3ccccc3)n[nH]2)cc1 | 20.8%[15.4 µM] | -3.1 | -7.8% | 1.7 | 1.1 | 3.2
55 | O=C(c1ccc(Cl)cc1)C1CCN(C(=O)NC2CCCCC2)CC1 | -49.2%[inhibitor] | -11.6 | ? | 2.0 | -8.6 | -0.7

# Compound activity: PubChem BioAssay, National Center for Advancing Translational Sciences (NCATS)
